Tg IFNy HTS = inhibitors of Toxoplasma gondii growth with IFN-gamma; Toxoplasma gondii growth in IFN-gamma-treated host cells; stronger effect = lower value; reference of the scale not given here; activity change, negative = inhibition, %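 (about 20 µM by stock and volumes)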; 69,000 compounds, 3.8% hits; AID 1259416;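 active = below -70%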;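 also: host cells are HeLa cells infected with Toxoplasma gondii; parasite growth read as luciferase light; one replicate is shown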
* marks the source's active call; other numbers are inactive results; i = inactive; & = joins results of further samples. These rows are one share of the data; count on the stated rates, not on these rows.

SMILES | Tg IFNy HTS
Cc1nc(-c2ccccc2F)sc1C(=O)NCCS(=O)(=O)c1ccc(F)cc1 | -9
CC(C)n1cnc2c(NCc3ccccc3O)nc(NCCCO)nc21 | 4
COCCNC(=O)CSc1ccc(Cl)cc1 | 26
CSCc1noc(CNC2CCN(c3cccc(C)c3C)CC2)n1 | 5
CCN(CC)CCN1C[C@@H](C(=O)NCc2ccco2)C[C@@H]2OCC[C@@H]21 | 226
Cc1cc(C)n(CCc2nnc(NC(=O)Cc3c(C)[nH]c4c(C)ccc(C)c34)s2)n1 | -5
Cc1nc(-c2cc(C(=O)CCN3CCOCC3)c3ccccn23)cn1C | -34
COc1ccc2[nH]c(-c3ccccc3)c(CCNC(C)=O)c2c1 | 2&10
COc1ccc(CNc2ccc(Br)cc2)c(OC)c1OC | 34
Cc1cccc(Nc2nc(C(=O)N3CCc4ccccc43)nc3ccccc23)c1 | -53
N#Cc1ccc(C(=O)N2CCc3ncc(Cn4cccn4)n3CC2)cc1 | -7
CN(Cc1cn[nH]c1C(C)(C)C)Cc1n[nH]c2c1CCCC2 | 13
Clc1ccccc1N=C/C=C1\NN=NC1c1ccc(Br)cc1 (stereo unspecified) | 8
Cn1ccnc1CN1C[C@H]2CN(Cc3cccc(F)c3)C(=O)[C@@H]2C1 | 13
Cc1cnn(CC2CCN(C(=O)C3CC4(CCNCC4)CN3)CC2)c1 (stereo unspecified) | 67

Following part:
SMILES | Tg IFNy HTS
COc1cccc2c(OC(C)=O)coc12 | 62
CCOC(=O)c1cccc(Nc2nc(-c3nnc(-c4ccc(C)cc4)o3)nc3ccccc23)c1 | i
Cc1ccc(C(=O)N2CCCC3(C2)Nc2cccnc2NC3=NCc2ccccc2)cn1 (stereo unspecified) | 70
CC(Cc1ccncc1)NC(=O)CSCc1ccccc1Cl (stereo unspecified) | 48
COc1ccc(OC)c(S(=O)(=O)N2CCC3(CC2)Nc2ccccc2-n2cccc23)c1 | 40
COc1cc(/C=C/C(=O)O)cc(OC)c1O | 1
COc1cccc(-c2ccc(C(N)=O)cc2)c1OC | -59
Cc1cc(C)c2cc(CNC3CCCC3)c(Cl)nc2c1 | 20
Cn1cc(CCNC(=O)Cn2nnc(-c3ccccc3)n2)c2cc(F)ccc21 | 31
CCc1nn(C)c(Cl)c1CN1CCCC(OCc2ccccn2)C1 (stereo unspecified) | 8
Cc1occc1C(=O)N1CCOCC2(CCN(Cc3nccn3C)C2)C1 (stereo unspecified) | -78*
CC(C)CN1C(=O)CCc2cc(NS(=O)(=O)c3ccc(F)c(F)c3)ccc21 | -64
COCCN1C(=O)N(C2Cc3ccccc3C2)C(=O)C12CCN(Cc1cccn1-c1ccccn1)CC2 | 4
COc1ccc(NC(=O)CC(C)Nc2n[nH]c3nc(C)cc(C)c23)cc1 (stereo unspecified) | -10
Cc1nc2nnc3ccc(C(=O)N(C)Cc4ccccn4)cc3c2n1Cc1ccccc1 | -109*

Later entries.
SMILES | Tg IFNy HTS
CN1C(=O)c2cc(NS(=O)(=O)CC(F)(F)F)ccc2OC[C@H]2O[C@@H](CC(=O)Nc3cccc(F)c3)CC[C@@H]21 | -2
CN(C)C1CCN(C(=O)c2cc(-c3ccnn3C3CCCC3)n3ccccc23)CC1 | -39
COc1ccc(CNC(=O)CN2C(=O)CCc3cc(S(=O)(=O)N4CCCCC4C)ccc32)cc1 (stereo unspecified) | -12
CCOc1ccccc1NC(=O)N1CCC2(CC1)c1cccn1-c1ccc(C)cc1N2CC | -68
CC(C)n1ccc(CN2CCN(C)C3(CCN(C(=O)c4ccco4)CC3)C2)c1 | 10
CNC(=O)CN1CCO[C@H]2CN(C(=O)c3cccn3C)C[C@@H]21 | 29
COc1cc(N2CC[C@@H](O)[C@@H]2Cc2ccccc2)ncn1 | -25
Cc1cc(C)n(Cc2nc(-c3ccc(NC(=O)c4ccco4)cc3)oc2C)n1 | 45
CCOc1cc(C(=O)NCCc2csc(-c3ccc(Cl)cc3)n2)cc(OCC)c1OCC | 45
CCN1CC(Cn2ccnc2-c2ccncc2)CC1=O (stereo unspecified) | -2
COc1ccccc1-c1nc(C)c(-c2ccc(SCc3ccccc3Cl)nn2)s1 | -23
C=CCNc1ccccc1C(=O)NCC1CN(S(C)(=O)=O)CCO1 (stereo unspecified) | 3
CN1[C@@H](C(=O)NCc2ccccn2)C[C@@H](c2cccs2)NS1(=O)=O | -34
C[C@@H]1CN([C@@H](C)CO)C(=O)c2cc(N(C)C)ccc2O[C@@H](C)CCCCO[C@@H]1CN(C)Cc1ccc(C(=O)O)cc1 | 25
OC1CCN(c2ccnc(N3CCCC(OCc4ccccn4)C3)n2)CC1 (stereo unspecified) | 4

2 consecutive compounds out of the list so far, quoted:
SMILES | Tg IFNy HTS
C[C@@H]1CN([C@@H](C)CO)C(=O)c2cc(N(C)C)ccc2O[C@@H](C)CCCCO[C@@H]1CN(C)Cc1ccc(C(=O)O)cc1 | 25
OC1CCN(c2ccnc(N3CCCC(OCc4ccccn4)C3)n2)CC1 (stereo unspecified) | 4

The list goes on.
SMILES | Tg IFNy HTS
Cn1cc(CN2CCCC(CCc3ccccc3C(F)(F)F)C2)cn1 (stereo unspecified) | -22
CO[C@H]1CN(C)C(=O)c2ccc(NC(=O)c3ccccc3F)cc2OC[C@H](C)N(C)C[C@@H]1C | -10
Cc1noc(C)c1S(=O)(=O)N(C)C[C@@H]1OCc2ccccc2-c2c(n(C)c3ccccc23)C(=O)N([C@H](C)CO)C[C@H]1C | -48
CNc1nc(Nc2ccccc2)nc(OCC(F)(F)F)n1 | 17
C[C@@H]1CC=CC[C@@H](c2ccccc2)NC(=O)[C@H](C)N(C)C(=O)c2ccccc2O1 (mixture of isomers) | -46
CO[C@H]1CN(Cc2cnn(-c3ccc(C)c(C)c3)c2)CC[C@H]1N | -11
O=C(Nc1cccc(F)c1)c1c(O)c2cccnc2n(-c2ccc(F)cc2)c1=O | 46
CC(C)Oc1ccc(C(=O)NCCc2csc(-c3ccc(F)cc3)n2)cc1 | 10
CCOC1C2CCC1N(C(=O)c1cccc3c1OCCO3)CCO2 (stereo unspecified) | -45
CC(C)N(C)C1CCN(S(=O)(=O)c2ccc3[nH]c(=O)ccc3c2)CC1 | 17
Cn1cc(-c2ccc3ccc(-n4ccc(C(=O)Nc5cccc(F)c5)n4)n3c2)cn1 | 39
CCOc1ccccc1N(Cc1nc(-c2ccccc2OC)oc1C)S(=O)(=O)c1cccs1 | -20
O=C(c1ccccn1)C1CCCN(C(=O)c2c(O)cccc2O)C1 (stereo unspecified) | 7
COc1cccc(CN2C[C@@H]3CCN(C(=O)NC(C)C)CC[C@H]3S2(=O)=O)c1 | 9
CCCNC(=O)N1[C@H](C#N)[C@@H](c2ccccc2-c2ccccc2F)[C@@H]1CO | -5

(listing goes on)
Compound,Tg IFNy HTS
O=C(CSc1nc2cccnc2n1-c1ccc(F)cc1)NCc1ccco1,3
CN(CCCc1cnn(C)c1)Cc1cc2ccc(F)cc2[nH]c1=O,-7
Cc1noc(C)c1S(=O)(=O)N(C)C[C@@H]1OCCCC[C@@H](C)Oc2ccc(NC(=O)CCC(F)(F)F)cc2C(=O)N([C@H](C)CO)C[C@@H]1C,32
COc1ccc(CN(C)C[C@@H]2OCc3cnnn3CCCC(=O)N([C@H](C)CO)C[C@@H]2C)cc1,-4
CCOCc1cncc2c1CCN(C(=O)c1ccncc1F)C2,11
N[C@@H]1c2cccnc2[C@H](OC(=O)N2CCC(n3c(=O)[nH]c4ncccc43)CC2)CC[C@H]1c1cccc(F)c1F,5
Cc1noc(C)c1S(=O)(=O)N1CCC[C@@H]1C(=O)NCCc1csc(-c2ccccc2)n1,13
CCn1c(=O)c(-c2nc(-c3ccc(C)cc3C)no2)c(O)c2cc(F)ccc21,62
O=C1CCC2(CCN(CC3CCOC3)CC2)N1Cc1cccc(F)c1 (stereo unspecified),7
Cc1cccc(SC2CCN(Cc3ccccc3C(=O)O)CC2)c1,1
Cc1cc(NC(=O)c2nnn(Cc3nc(-c4cccc(Cl)c4)oc3C)c2C)ccc1Br,67
Cc1ccc(CN2CCOCC3(C2)CN(c2cccnc2)C(=O)CO3)s1 (stereo unspecified),1

Next part
Compound,Tg IFNy HTS
C/C=C/c1ccc([C@H]2[C@@H](CO)N(S(=O)(=O)CC)[C@@H]2CN(C)C(=O)CC)cc1,3
Cc1cc2oc(C(=O)Nc3cccc(-c4csnn4)c3)cc(=O)c2cc1C,-45
Cc1ccc(-c2coc(-c3ccc(NC(=O)c4ccccc4)cc3)n2)c(C)c1,-32
C=CCn1cc([C@@H]2C[C@H](NC(C)=O)C[C@H](c3cc(F)cc(F)c3)O2)cn1,-44
C[C@H](CO)N1C[C@H](C)[C@H](CN(C)Cc2ccc(Cl)c(Cl)c2)Oc2c(NS(=O)(=O)c3ccc(F)cc3)cccc2C1=O,-85*
CCOc1ccc(C(=O)NCCc2csc(-c3ccc(F)cc3)n2)cc1OCC,60
Cc1nnsc1CN(C)C(=O)c1ncn[nH]1,0
c1ccc2nc(Cn3cnnc3)ccc2c1,19
CCOC(=O)CNCCC(=O)c1ccc(OC)cc1,3
CCN(C[C@H]1[C@H](c2ccc(C3=CCCCC3)cc2)[C@H](CO)N1CC1CC1)C(C)=O,-26
CC(C)(C)NC(=O)[C@@H]1CCCC[C@@H]1C(=O)NCCS(C)(=O)=O,39
CCCC(=O)NCCc1csc(-c2ccc(F)cc2)n1,53

The list continues:
Compound,Tg IFNy HTS
Cn1ccc2cc(S(=O)(=O)N3CCCC(C(=O)NCCCN4CCCC4=O)C3)ccc21 (stereo unspecified),72
COc1cccc(NC(=O)Nc2ccc3c(c2)C(=O)N(C)C[C@H](OC)[C@H](C)CN[C@H](C)CO3)c1,73
CC(=O)N1CC2(CCN(C(=O)[C@@H](N)CC(C)C)CC2)CC1C(=O)O (stereo partly specified),0
O=C1CCN(Cc2ccccc2)C(=S)N1,-30
CN(C)c1ccc(/C=C/c2ccc3ccccc3n2)cc1,340
O=S(=O)(c1ccccc1Cl)N1CCC2(CC1)Nc1ccc(Cl)cc1-n1cccc12,3
CN(C1CCCCC1)S(=O)(=O)c1ccc(-c2ccccn2)s1,-16
COc1ccc(S(=O)(=O)NCc2ccco2)cc1C,-6
COc1cccc(CC2(CO)CCN(C(=O)c3cc4cc(F)ccc4[nH]3)CC2)c1,-19
CNCc1cc(-c2ccccc2F)n(S(=O)(=O)c2cccnc2)c1,25
CN(C)S(=O)(=O)c1ccc2c(c1)cc(C(=O)NC1CCCCCCC1)n2Cc1ccncc1,-74*
O=S(=O)(c1cccc(Cl)c1Cl)N1CCCC2(CCNC2)C1 (stereo unspecified),1

Exported field by field: entries from further up
CN(C)c1ccc(/C=C/c2ccc3ccccc3n2)cc1
  Tg IFNy HTS = 340
O=S(=O)(c1ccccc1Cl)N1CCC2(CC1)Nc1ccc(Cl)cc1-n1cccc12
  Tg IFNy HTS = 3
CN(C1CCCCC1)S(=O)(=O)c1ccc(-c2ccccn2)s1
  Tg IFNy HTS = -16
COc1ccc(S(=O)(=O)NCc2ccco2)cc1C
  Tg IFNy HTS = -6

The listing picks up with the 4 entries that preceded the break.
Compound,Tg IFNy HTS
COc1cccc(CC2(CO)CCN(C(=O)c3cc4cc(F)ccc4[nH]3)CC2)c1,-19
CNCc1cc(-c2ccccc2F)n(S(=O)(=O)c2cccnc2)c1,25
CN(C)S(=O)(=O)c1ccc2c(c1)cc(C(=O)NC1CCCCCCC1)n2Cc1ccncc1,-74*
O=S(=O)(c1cccc(Cl)c1Cl)N1CCCC2(CCNC2)C1 (stereo unspecified),1
CCOc1ccc(-c2nc(Cn3nnc(C(=O)Nc4ccc(F)c(F)c4)c3C)c(C)o2)cc1,22
Cc1nc(C(N)=O)c2c(n1)n(-c1ccc(F)cc1)c(=O)n2CC(=O)N1CCC(C)CC1,3
Cc1ccc(C(=O)N2CCC3(CC2)C(=O)N(C)CCN3CC2CC2)cn1,1
CN1CCN2C[C@@H](NC(=O)c3[nH]ncc3Cl)C[C@H]2C1,1
CC(C)NC(=O)CC1CC2(CCN(Cc3ccccn3)CC2)c2ccccc21 (stereo unspecified),5
CCC(=O)N1[C@H](CN(CC)C(=O)c2cccc(F)c2)[C@@H](c2ccccc2)[C@@H]1CO,11
Cc1cccc(Nc2nc(C(=O)NCc3ccc(C)o3)nc3ccccc23)c1,-51
CC(=O)N1CCC(Cc2cncc(Cl)n2)CC1,-25
CCOC(=O)CN1CCC2(CC(C(=O)NCc3ccc(F)cc3)=NO2)C1 (stereo unspecified),1
CCOCC1c2c(ncn2C)CCN1C(=O)c1cnccn1 (stereo unspecified),0
Cc1cc(C)n2c(C(=O)N3CCC4(CCCN(C)C4=O)C3)nnc2n1 (stereo unspecified),-2
Cc1nc(-c2cccc(F)c2)sc1CCNC(=O)C(=O)Nc1cccc(Cl)c1,-16

Additional results
Compound,Tg IFNy HTS
Cc1noc(C2CCCN2Cc2cnn(C)c2)n1 (stereo unspecified),3
COCCn1cc2c3c(cccc31)CN(C(=O)c1cnccn1)CC2,33
COc1cccc(C#Cc2ccc([C@@H]3[C@H](C#N)N[C@H]3CO)cc2)c1,46
COc1ccc(Cn2nnnc2CN2CCn3cc(C(F)(F)F)nc3C2)cc1,-39
O=S(=O)(c1cccs1)N1CCCC2(C1)Nc1cccnc1NC2=NC1CCCC1 (stereo unspecified),-36
O=C(NCc1cccnc1)c1cccnc1Nc1cccc(C(F)(F)F)c1,-63
Nc1cscc1S(=O)(=O)c1ccccc1,9
CC(=O)N1CCCn2nc(C(=O)N3CCC3c3ccccc3)cc2C1 (stereo unspecified),-46
Cc1nc(C2CCCN(CC(=O)Nc3nccs3)C2)ncc1C(=O)N(C)C (stereo unspecified),10
CCCNC(=O)c1c(O)c2cccnc2n(-c2ccc(OC)cc2)c1=O,143
O=C(Nc1ccc(-c2nc(-c3ccccc3)co2)cc1)c1ccc(Br)o1,47
O=C(NCc1ccccc1)NC1(C(=O)N2CCCCCC2)CCCCC1,-4
